# HCMV UL50-53 inh = disrupts HCMV UL50-UL53 complex binding; HTRF UL50-UL53 interaction, normalized percent inhibition; inhibition, % (no concentration beside the values); 0.15% of 190,000 active; AID 1918969;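 active = both replicates at 50% or more, plus weaker picks with an unusually low signal ratio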;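 note: stock transfer was 100 nL into about 20 µL; 0% = negative control wells and 100% = wells with untagged competitor protein; inactives centre near -12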
# Sa growth inh = inhibitors of Staphylococcus aureus growth at 42 °C; S. aureus RN4220 growth, OD600, 20 h; active compounds read low; relative growth, % (no concentration beside the values); 0.53% of 170,000 active; AID 720641;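 active = growth at 42 °C up to 50% and 20 or more points under that at 30 °C, or under 10% at both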;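 note: 300 nL library stock went into each well; scaled to the means of positive and negative controls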
# GIV Gai3 FP = inhibitors of GIV GBA-motif binding to rat Galpha-i3. P08753. Galpha-i3/FITC-GIV peptide fluorescence polarization, 90 min; active compounds read low; scaled: aluminum fluoride 0%, vehicle 100%. percent of control (FP), % (test concentration not listed). 0.42% of 210,000 active. AID 1224905;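 active = replicate mean at 85% of control or lower, very high polarization wells dropped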;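 note: lower values mean more displacement of the GIV peptide from Galpha-i3; wells of about 15 µL received 100 nL stock; the first replicate is given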
# Target sequence (P08753 whole entry, looked up): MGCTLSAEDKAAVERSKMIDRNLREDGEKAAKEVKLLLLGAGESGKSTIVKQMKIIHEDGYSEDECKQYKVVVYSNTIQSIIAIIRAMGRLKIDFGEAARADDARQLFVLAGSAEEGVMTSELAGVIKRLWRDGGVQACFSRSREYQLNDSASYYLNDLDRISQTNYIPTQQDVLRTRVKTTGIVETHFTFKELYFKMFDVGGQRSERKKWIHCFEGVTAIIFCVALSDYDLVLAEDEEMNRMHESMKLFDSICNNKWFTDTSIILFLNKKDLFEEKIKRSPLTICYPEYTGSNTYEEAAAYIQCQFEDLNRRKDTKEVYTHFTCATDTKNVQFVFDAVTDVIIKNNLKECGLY
# Sa growth inh second temp = recorded beside Sa growth inh, whose call it bears; relative growth, %; measured here: growth at 30 °C;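 optical density after 20 h as mean of two plates; 100% = untreated growth and lower means inhibition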
# Starred values were filed as active, the others as inactive; . = no result given; & = joins results of further samples.
SMILES,HCMV UL50-53 inh,Sa growth inh,Sa growth inh second temp,GIV Gai3 FP
O=C(CSc1ncnc2nc(N3CCSCC3)sc12)Nc1ccc2c(c1)OCO2,-23.2,.,.,97.9
COc1ccccc1NC(=O)C1=C(C)Nc2sc(C#N)c(N)c2C1c1ccco1 (configuration not stated),-36.9,117.6,90.3,128.8
COc1cccc(N2CC(=O)N(/N=C/c3ccccn3)CC2=O)c1,-16.9,97.8,90.2,102.5
O=C(/C=C/c1ccco1)N(Cc1ccccc1F)C1CCS(=O)(=O)C1 (configuration not stated),-25.7,93.2,79.8,104.8
O=c1c2cnn(-c3ccccc3)c2nc(-c2cccs2)n1-c1ccc(Br)cc1,-6.3,113.1,98.0,104.4
CCCN(Cc1cccs1)C(=O)Nc1cc(OC)cc(OC)c1,.,86.4,80.7,103.9
N#Cc1cccc(NC(=O)/C=C/c2ccco2)c1,-49.0,99.7,78.0,.
CC(NC(=O)/C=C/c1ccccc1Cl)c1ccccc1 (configuration not stated),.,94.2,85.8,102.4
CCN(CC)C(=O)CSc1nnc2[nH]c(=O)cc(C)n12,.,96.3,93.5,96.2
CC(C)(CO)NC(=O)C1CC(c2c(F)cccc2Cl)=NO1 (configuration not stated),4.9,101.2,78.9,97.2
CCOc1ccccc1NC(=O)Cn1c(=O)n(Cc2ccco2)c(=O)c2cccnc21,-29.4,118.7,92.9,104.9
O=C(CSc1nnc(-c2c[nH]c3ccccc23)o1)C12CC3CC(CC(C3)C1)C2,-22.5,97.2,93.2,.
COc1ccc(NC(=O)c2noc3c2CCCC3)cc1Cl,.,102.2,95.0,100.6
N#C/C(=C\c1c(Oc2ccccc2)nc2ccccn2c1=O)C(=O)NC1CCS(=O)(=O)C1 (configuration not stated),-53.7,89.1,81.2,96.9
COc1ccc(C2CC(=O)N(c3ccc(Cl)cc3)C(=O)C2)cc1OC,-7.0,.,.,95.9
COc1ccc2c(c1)CC/C(=C/c1ccccn1)C2=O,-5.3,55.5,38.4,100.4
COc1ccc(N2CC(NC(=O)COc3ccccc3F)CC2=O)cc1OC (configuration not stated),.,111.0,87.9,104.3
Cc1cccn2cc(-c3cccc(NC(=O)c4ccccc4)c3)nc12,.,74.6,67.7,99.7
Cc1cccc(NC(=O)CSc2nc3c(c(=O)[nH]2)CN(Cc2ccc4c(c2)OCO4)CC3)c1C,-10.7,123.8,87.5,102.8
COc1ccc(S(=O)(=O)N2CCC(C(=O)NC3CC3)CC2)cc1Cl,-8.1,108.6,74.8,102.2
CCCCC(CC)C1OC(C)CC(C)(C)O1 (configuration not stated),8.8,94.6,90.5,107.2
O=C(CSc1nc2ccccc2n1Cc1ccccc1)N/N=C/c1cccnc1,-12.5,98.6,85.5,97.1
COc1ccc(Cl)c2c1NC(c1ccncc1)C1CC=CC21 (configuration not stated),-21.9,84.2,85.7,96.9
CN(CCO)S(=O)(=O)c1ccc2c(c1)Cc1cc(S(=O)(=O)N(C)CCO)ccc1-2,3.1,94.7,80.2,104.7
COc1ccc(C2CCCCCN2C(=O)Nc2ccccc2)cc1 (configuration not stated),-20.9,86.9,92.4,.
CCN1CCc2c(sc(-n3cccc3)c2C(C)NC(=O)Nc2cc(Cl)c(OC)cc2OC)C1 (configuration not stated),.,140.9,70.3,115.9
O=C(CC1CCCCC1)NC1CCCC1,-11.4,106.9,102.1,97.6
CC(C)NC(=O)N1CCc2c([nH]c3ccccc23)C1c1ccc(F)cc1 (configuration not stated),-6.6,109.0,93.8,102.4
COc1ccc(Br)cc1Cc1nc(C)cc(Cl)n1,-27.1,89.4,102.7,114.4
CC(C)(C)C(=O)Cn1c(C(=O)O)cc2ccccc21,11.6,100.0,86.9,100.7
CCC(=O)N1CCN(c2ccc(N)cc2)CC1,-9.0,114.6,97.2,107.1
O=C(C1CCCN(S(=O)(=O)c2cccc3nsnc23)C1)N1CCN(c2cccc(Cl)c2)CC1 (configuration not stated),-45.1,98.0,82.5,97.8
CC1(c2ccccc2)CC(C)(C)N(C(=O)c2ccco2)c2ccccc21 (configuration not stated),-19.7,76.7,94.4,.
CC(=O)Nc1c(-c2cccc(C(F)(F)F)c2)c(C(F)(F)F)nn1C,-7.8,108.2,93.4,105.8
COc1cccc(C(=O)NC2=NC(c3ccccc3F)CC(=O)N2)c1 (configuration not stated),-14.0,96.1,88.3,99.9
O=C(O)C1CC=CCC1C(=O)Nc1ccc(C(=O)N2CCCc3ccccc32)cc1 (configuration not stated),-8.5,102.6,103.0,97.6
CCOC(=O)c1c(C)[nH]c(C(=O)N2CCC(C(C)C(=O)NCc3ccc(F)cc3Cl)CC2)c1C (configuration not stated),4.9,.,.,103.9
COc1ccc(-c2onc(C)c2C)cc1S(=O)(=O)Nc1cc(Cl)ccc1C,.,90.1,91.0,99.2
Cc1ccc2nc(-c3ccc(NC(=O)C(C)C)cc3)oc2c1,-0.7,95.7,103.9,107.7
C#CC(C)(CC)NC(=O)c1cc2c(n(-c3ccc(Cl)cc3)c1=O)CC(C)(C)CC2=O (configuration not stated),-22.3,99.6,94.8,104.2
Cc1ccc(NC(=O)CN2C(=O)COc3ccc(S(=O)(=O)NC4CCCC4)cc32)cc1Cl,.,77.0,72.9,107.3
COC(=O)c1cc(COC(=O)c2ccc3ccccc3n2)oc1C,-67.5,101.1,77.3,.
O=C(Nc1ccc(F)cc1)N1CCN(c2ccc3nnc(-c4ccc(F)cc4)n3n2)CC1,-35.4,106.9,86.5,102.1
O=C(/C=C/c1ccccc1)Nc1nnc(CSCc2ccccc2F)s1,.,96.6,79.6,98.5
NS(=O)(=O)c1ccc(CCNC(=S)NC2CCCC2)cc1,-9.1,103.0,91.5,105.2
COc1ccc(OCc2ccc(-c3nc(C#N)c(NCc4cccnc4)o3)o2)cc1,-20.7,92.5,75.5,100.1
Cc1cccc(NC(=O)Cc2ccc(NC3=NC4CS(=O)(=O)CC4S3)cc2)c1 (configuration not stated),-21.8&-28.8,98.1,85.3,104.7&104.1
CCOC(=O)C1CCCN(c2ncnc3c2cnn3-c2ccc(C)c(Cl)c2)C1 (configuration not stated),.,130.7,91.5,103.7
CN=C(Nc1cc(C(F)(F)F)ccc1-n1ccnc1)c1ccccc1,-24.2,114.8,73.6,.
Cc1cc(N2CCN(C)CC2)nc2ccc(NC(=S)NC3CC3)cc12,.,108.0,84.7,99.5
COc1ccc(CCNC(=O)c2cc3c(=O)n(Cc4ccccc4)ccc3nc2C)c(OC)c1,8.9,.,.,104.4
CCOC(=O)N1CCc2c(sc(NCc3ccc(OC)c(Br)c3)c2C(=O)Nc2cc(OC)ccc2OC)C1,.,99.3,70.0,112.3
c1ccc(N=c2scc(-c3ccccc3)n2CCN2CCOCC2)cc1,.,85.4,80.0,109.5
Cn1c(=O)c(C(=O)/C=C/C=C/c2ccccc2)c(O)c2ccccc21,-7.2,80.2,80.2,.
COc1ccc(NC(=O)CCS(=O)(=O)c2cc3c4c(c2)CCN4C(=O)CC3)c(OC)c1,.,96.3,87.4,101.3
Cc1nc2ccccc2c(C(=O)OCC(=O)Nc2ccc(Cl)cc2F)c1C,-29.1,119.2,85.5,.
Cc1nnc(SCC(=O)Nc2ccc(Cl)cc2Cl)c2ccccc12,-33.0,.,.,103.6
CC(C(=O)NCc1cccc(Br)c1)n1ncn2cccc2c1=O (configuration not stated),-1.6,98.2,93.4,103.1
CC(=O)OC1C(=O)OC2[C@@H](C)C(n3ccc(=O)[nH]c3=O)O[C@H]12 (some centres not stated),.,80.3,89.0,95.8
CCc1ncc(C(=O)NCc2cccc(F)c2)c(C)n1,-6.9,.,.,104.9
# (next part)
SMILES,HCMV UL50-53 inh,Sa growth inh,Sa growth inh second temp,GIV Gai3 FP
COc1ccc(CCNC(=O)c2ccc(CS(=O)(=O)c3ccc(C)cc3)o2)cc1OC,3.5,109.5,81.0,101.6
CCOc1ccc(CCNC(=O)Cn2nnc(-c3ccccc3Cl)n2)cc1OCC,-4.3,81.1,87.9,104.9
Fc1ccc2nc(C(F)(F)F)cc(N3CCOCC3)c2c1,-6.1,102.3,85.0,101.4
O=C(c1csc(S(=O)(=O)N2CCN(C3CCCCC3)CC2)c1)N1CCOCC1,-3.3,.,.,107.4
COc1ccc(Br)cc1CNC(=O)CCn1c(=O)c2cccn2c2cccnc21,4.8,102.1,100.8,103.4
CCOC(=O)c1c(NC(=O)/C=C/c2ccccc2)sc2c1CCCC2,-52.8,101.4,89.1,105.4
Cc1ccc(CNc2ccc(-c3nc(-c4cccnc4)no3)cc2[N+](=O)[O-])cc1,-33.0,96.9,85.5,101.3
O=C(NC1CCCCC1NC(=O)c1ccco1)c1ccco1 (configuration not stated),-23.9,109.9,90.9,101.0
COc1ccc(-c2noc(-c3ccc4c(=O)n(-c5ccc(F)cc5)c(=O)[nH]c4c3)n2)cc1OC,-15.3,.,.,106.2
Cc1ccc(CCNC(=O)C(C)C2Sc3ccccc3N(Cc3ccccc3F)C2=O)cc1 (configuration not stated),-13.8,.,.,97.5
CC(=O)c1ccc(NC(=O)Nc2nnc(N3CCCC(C)C3)s2)cc1 (configuration not stated),0.3,83.1,91.7,101.9
COc1ccc(/C=N/c2nc3ccc(Br)cc3s2)cc1,-17.6,94.0,71.1,.
O=C(Nc1ccc(Cl)cc1)c1ccc2nonc2c1,-14.3,101.6,86.4,97.4
COc1ccc2cc(C(C)c3nc4ccccc4[nH]3)ccc2c1 (configuration not stated),.,104.5,85.0,101.9
CC(=O)N1N=C(Cn2cnc3c(=O)n(C)c(=O)n(C)c32)OC1c1ccc2c(c1)OCO2 (configuration not stated),-40.9,111.6,91.0,101.9
Cn1c(N)c(C(=O)c2ccc(Cl)c(S(=O)(=O)N3CCCC3)c2)c(=O)[nH]c1=O,-18.5,104.3,97.1,.
O=C(CCN(C(=O)c1ccc(Cl)cc1)C1CCCCC1)N1CCNCC1,-4.3,.,.,103.4
O=C(Nc1nccs1)C1(S(=O)(=O)c2ccc(Cl)cc2)CC1,-3.9,107.4,84.5,103.6
c1ccc(OCc2nc(-c3ccccn3)n[nH]2)cc1,4.3,51.9,32.2,.
CC(C)c1cc(-c2nc(-c3ccccc3)no2)n[nH]1,.,98.6,92.4,100.8
CN(C)C(=O)c1ccc(-c2cc(C(F)(F)F)n(C)n2)s1,-43.7,95.6,89.6,106.0
COC(=O)c1ncn2c1C(=O)N(C1CC1)C(C)(C(=O)NCCCOC(C)C)C2 (configuration not stated),-12.6,.,.,100.8
N#Cc1ccc(/C=N/NC(=O)Cc2cn3ccsc3n2)cc1,-46.2,89.8,99.8,.
N#Cc1ccccc1CN1c2cccc3cccc(c23)S1(=O)=O,5.4,113.5,101.8,103.1
Cc1cc(C(=O)OCC(=O)N2CCC(C)CC2)c2ccccc2n1,-28.6,103.6,99.7,.
CCOC(=O)c1c(C)n(CC)c2ccc(OC(=O)c3ccc(Br)cc3)cc12,-6.6,.,.,97.3
Cc1ccc(CN2C(=O)C3CCCCC3C2=O)cc1S(=O)(=O)N1CCN(C2CCCCC2)CC1 (configuration not stated),25.3,.,.,101.3
O=C(NC1CCCC1)C(c1ccncc1)N(CCCN1CCOCC1)C(=O)c1ccc(-c2ccccc2)[nH]1 (configuration not stated),-26.2,107.5,100.1,105.7
O=C(Nc1ccccc1Cl)c1cnsn1,-14.1,100.0,78.4,103.1
Cc1cc(C)c2nc3s/c(=C\c4cc5c(cc4Br)OCO5)c(=O)n3c2c1,9.8,.,.,107.6

# Screening results from PubChem.

# This is a random part of the collection; overall some 0.8% were active at least once.
